Screening results: PubChem, several laboratories
Ecoli growth: inhibitors of Escherichia coli growth; AID 1053175; OD600, 23 h; active compounds read low; OD600 absorbance (no concentration beside the values); 0.21% of 330,000 active;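 active = OD600 absorbance below the run mean of sample wells minus 3.6 SD, in any replicate, cut at about 0.56 in these data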;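 also: stock transfer was 300 nL into about 60 µL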
LANA-H2B inh: blocks KSHV LANA binding to histone H2A/H2B | Q9QR71 | cell-free LANA-H2A/H2B peptide, fluorescence polarization | inhibition, % (concentration not given with the values) | 0.6% of 320,000 active | AID 2629; in the data active = inhibition mostly above about 10%, no sharp cut-off; inactive = mostly below about 6.7%;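 also: stock transfer was 7.5 nL into about 10 µL; 0% = median of vehicle wells and 100% = median of positive control wells; one replicate is shown; the record names a cut of 25% in any replicate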
UCH37 DUB inh: blocks the human deubiquitinase UCH37. 0.33% of 330,000 active. inhibition, % (concentration not given with the values). purified proteasome/UCH37, Ub-AMC cleavage fluorescence. Q9Y5K5;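 active = mean of two replicates above 20%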;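 also: 0% = compound-free wells with enzyme and 100% = wells lacking proteasome; stock transfer was 100 nL into about 20 µL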
Target sequence (Q9Y5K5 whole entry, looked up): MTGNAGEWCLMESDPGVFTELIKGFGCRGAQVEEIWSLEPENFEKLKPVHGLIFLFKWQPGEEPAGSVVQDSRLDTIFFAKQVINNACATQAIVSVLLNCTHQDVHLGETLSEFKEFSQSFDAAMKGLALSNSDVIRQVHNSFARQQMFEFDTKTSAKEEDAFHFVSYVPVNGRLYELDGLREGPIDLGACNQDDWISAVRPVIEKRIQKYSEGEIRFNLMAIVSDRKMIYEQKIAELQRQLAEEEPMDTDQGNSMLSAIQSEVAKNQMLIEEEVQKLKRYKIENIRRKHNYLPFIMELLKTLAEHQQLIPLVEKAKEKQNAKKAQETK
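Material: Human UCH37 enzyme supplied as purified proteasome complex | Schedule: 30 min compound-proteasome preincubation then 25 min substrate reaction, room temperature | Detection: AMC fluorescence from Ub-AMC cleavage, excitation 355 nm, emission 460 nm | Benchmarks: Wells without proteasome as full block, compound-free enzyme plus substrate as uninhibited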
B2AR ag: human beta-2 adrenergic receptor agonism by FAP. AID 504454. 0.43% of 340,000 active. Am2.2-beta2AR cells, FAP receptor internalization, flow cytometry; reference of the scale not given here. response, % (concentration not given with the values). P07550;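 active = response above a set limit, near 3 SD of response in nonfluorescent compounds, cut at about 42% in these data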;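 also: stock transfer was 100 nL into about 11 µL; a reference agonist was the positive control; negative values mostly stem from fluorescent compounds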
ALR H2O2 inh: blocks human ALR sulfhydryl oxidase activity; inhibition, % (no concentration beside the values); purified ALR, DTT oxidation, H2O2 HRP-luminol luminescence; 3.8% of 290,000 active;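 active = mean and each replicate at 75% or more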;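 also: stock transfer was 7.5 nL into about 7.5 µL; 0% = neutral wells and 100% = wells with inactivated enzyme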
Target sequence (P55789 whole entry, looked up): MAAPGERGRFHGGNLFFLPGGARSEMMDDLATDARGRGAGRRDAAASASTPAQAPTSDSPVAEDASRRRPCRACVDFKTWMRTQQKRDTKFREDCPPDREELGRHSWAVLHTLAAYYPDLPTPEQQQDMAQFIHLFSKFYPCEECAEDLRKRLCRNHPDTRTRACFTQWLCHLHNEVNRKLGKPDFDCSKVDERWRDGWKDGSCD
HNF4A DNA FP: change in binding of human HNF4 alpha to DNA; P41235; HNF4a-FITC DNA binding, fluorescence polarization, 1 h; activity change, % at 10 µM; 0.3% of 360,000 active; AID 1224865; in the data active = activity change above about 30%, passing the limit was not always enough;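 also: controls were the assay level and a saturating level of protein; the project sought stronger binding though the title names inhibitors; some compounds called inactive have numbers as strong as hits; positive values seem to mean higher polarization but the record does not say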
FGF22 binding: shifts melting point of recombinant human FGF22 | Q9HCT0 | recombinant FGF22 thermal shift, SYPRO orange fluorescence; percent of sucrose octasulfate shift, DMSO zero | calls only at 9.99 µM | 1.5% of 340,000 active | AID 651658;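 active = melting point raised past a set limit in the mean and every replicate; three in four hits are not shown here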
Target sequence (Q9HCT0 whole entry, looked up): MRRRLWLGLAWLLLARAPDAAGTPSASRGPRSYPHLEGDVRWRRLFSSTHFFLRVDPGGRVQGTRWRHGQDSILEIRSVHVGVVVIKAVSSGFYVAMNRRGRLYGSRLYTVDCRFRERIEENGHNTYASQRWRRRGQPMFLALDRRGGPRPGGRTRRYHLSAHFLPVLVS
The depositor's hits bear a star; i = inactive; x = not tested or not shown. This is a subset, so the mix of outcomes need not match the whole.

SMILES	Ecoli growth	LANA-H2B inh	UCH37 DUB inh	B2AR ag	ALR H2O2 inh	HNF4A DNA FP	FGF22 binding
Cc1nc2ccc(NC(=O)N3CCC(c4ccccc4)C3)cc2nc1C (centres undefined)	0.79	-4.2	-96	-9	-1	0.4	x
O=C(CN(c1cc(Cl)ccc1Cl)S(=O)(=O)c1ccccc1)N1CCOCC1	0.69	-2.4	3.7	-2	-16	4.1	i
CS(=O)(=O)N1CCC(C(=O)Nc2ccc(C(F)(F)F)cc2)CC1	0.65	-1.2	3.5	5	-4	1.2	i
COCc1c(C(=O)N/N=C\c2cccs2)nnn1-c1nonc1N	x	1.7	x	-9	x	0.0	i
COCCCN(C(=O)c1ccccc1)c1nc(-c2ccc(OC)cc2)cs1	0.62	-0.8	1.6	7	-5	-0.6	i
Cc1cc(C)c(-c2csc(NC(=O)COC(=O)c3ccc4c(c3)OCO4)n2)c(C)c1	0.73	-0.4	3.3	7	2	-1.5	x
Clc1ccc(Nc2nc(C3CC3)cs2)cc1	0.74	0.4	0.6	0	12	2.6	i
C/C(Cl)=C\Cn1c(N2CCCC2)nc2c1c(=O)[nH]c(=O)n2C	x	0.9	3.3	-7	42	0.0	x
Cc1ccc(NC(=O)C/C(N)=N/OC(=O)Nc2cccc(Cl)c2)cc1	0.66	-1.7	5.2	-8	10	1.9	i
COc1ccc(CN(C)CC(O)COc2ccc(C(=O)c3ccccc3)cc2)c(OC)c1OC (centres undefined)	0.63	0.1	3.1	4	x	1.1	i
CCOC(=O)C1CCN(C(=O)c2ccc(Cl)c(NC3=NC4CS(=O)(=O)CC4S3)c2)CC1 (centres undefined)	0.71	5.6	3.5	11	-4	-4.2	i
COc1ccc(CNC(=O)[C@H](Cc2ccccc2)NC(=O)C2CCNCC2)cc1	0.59	-0.3	1.0	-3	-4	2.9	i
COc1ccc(Cc2noc(CN3CCNC(=O)CC3)n2)cc1OC	0.66	-1.8	4.0	5	-2	-1.4	i
COc1ccc(CNC(=O)CSCc2cnn(-c3ccccc3)c2-n2cccc2)cc1	0.69	-1.0	0.4	-1	-24	-1.6	x
COc1ccccc1N1CCN(C2CCN(S(=O)(=O)c3ccc(C)cc3)CC2)CC1	0.65	-1.8	2.7	2	-10	2.3	i
S=C(NCCc1ccccc1)Nc1ccc(Cl)cc1Cl	0.62	4.7	4.3	0	1	-0.4	x
CCC(=O)c1cn(CC(=O)Nc2cccc(OC)c2)c2ccccc12	0.65	-0.5	2.2	-5	2	0.8	i
Cc1ccc(NC(=O)OCCN2CCN(Cc3ccccc3)CCC2=O)cc1	0.72	-4.8	2.7	-3	92*	1.8	i
S=C(NCCc1ccccc1)Nc1ncccn1	0.63	x	0.5	-3	x	6.7	i
Cc1ccc(CSCCNS(=O)(=O)c2ccc([N+](=O)[O-])cc2)cc1	0.68	-6.3	1.0	-7	-13	1.3	i
CCc1nn(C(C)C(=O)N(C)Cc2ccccc2)c(=O)c2cc3occc3n12 (centres undefined)	0.67	-4.1	0.5	-2	0	-1.5	i
N=C1c2ccccc2-c2ccccc21	0.64	x	1.6	1	x	-1.8	i
CCN1C(=O)CSc2ccc(C(=O)NCCCN3CCOCC3)cc21	0.66	-3.3	3.3	0	-1	-1.7	i
COc1ccc(CNCC(O)(c2ccc(Cl)cc2)c2ccc(Cl)cc2)cc1OC	0.69	-0.4	3.9	18	-23	2.9	x
CCCOc1ccccc1C1NC(=O)NC(C)=C1C(=O)OCCOC (centres undefined)	0.73	-3.9	-2.0	1	4	-3.0	x
CCOC(=O)c1c(C2CCN(C(=O)OCC)CC2)nc2ccccn12	0.78	-13	5.7	-4	-2	-2.9	i
COC(=O)c1ccc(CN2CCCC(C(=O)Nc3cccc(-n4cnnn4)c3)C2)cc1 (centres undefined)	0.68	0.6	1.8	24	-2	3.9	i
C#CCSc1nc(=O)c2cccnc2n1-c1ccc(C)cc1	0.66	3.2	2.6	1	-6	-0.8	i
COc1ccc(Cc2nnc(SCc3ccc([N+](=O)[O-])cc3)o2)cc1	0.72	-1.3	4.5	-4	12	0.5	x
COc1cccc(C(=O)Nc2ccc(NC(C)=O)cn2)c1	0.67	-3.3	2.7	20	-8	3.1	x
CN(C(=O)c1ccc(Cl)c(S(=O)(=O)N2CCOCC2)c1)c1ccccc1C(=O)O	0.69	2.7	0.8	-8	-12	-2.0	i
O=C(CN1C(=O)S/C(=C\c2ccccc2F)C1=O)NC1C=CS(=O)(=O)C1 (centres undefined)	0.69	-2.9	1.5	0	-2	-2.1	i
CC(C)Sc1n[nH]c(=O)n1-c1ccccc1	0.68	-3.1	-0.4	1	-1	3.8	i
Cc1noc(C)c1COc1ccccc1C(=O)NNC(=O)C(C)Oc1ccccc1F (centres undefined)	0.71	1.9	-0.2	1	0	3.2	i
COC(=O)Cc1cc(=O)[nH]c(/N=C(\N)Nc2ccccc2C)n1	x	0.3	x	1	-4	-2.8	x
CCCCNS(=O)(=O)NC(=O)C1=C(N2CCCC2)COC1=O	0.69	1.6	3.1	-1	-1	2.6	i
COc1cccc(NC(=O)CSc2nc3ccccc3c(=O)n2CCCC(=O)NCC2CCCO2)c1 (centres undefined)	0.7	-2.3	1.5	-5	-9	4.5	i
CCOC(=O)C1(Cc2ccccc2)CCCN(Cc2ccc(OCCO)cc2)C1 (centres undefined)	0.68	-9.6	5.2	0	-2	-3.2	i
Nc1c2c(nn1-c1ccc(F)cc1)CSC2	x	3.9	x	0	-1	-0.1	i
CS(=O)(=O)c1ccc2nc(NC(=O)c3cc([N+](=O)[O-])cc([N+](=O)[O-])c3)sc2c1	0.71	-6.0	4.9	-1	-6	1.8	i
O=C(COC(=O)c1ccc2ccccc2n1)NCc1ccccc1	0.71	0.8	0.8	5	-1	3.8	x
C(=C\c1ccccc1)/C=N/N1CCN(Cc2ccccc2)CC1	x	-5.2	x	6	8	3.3	i
CC(C)(C)[C@@H]1CCC(=O)N(CC[C@H](Sc2ccccc2)c2ccccc2)CC1	x	5.6	0.6	41	-11	7.1	i
CCCCN(C)CCC(=O)Nc1ccc(OC)cc1OC	0.68	6.1	2.0	14	-6	-1.1	x
CCNc1ccc(S(=O)(=O)N(C)C)cc1NCC(=O)Nc1ccccc1Br	0.71	3.6	3.3	15	-29	-1.4	i
Cn1c(SCC(=O)Nc2ccccc2F)nnc1-c1cc2ccccc2o1	0.7	-0.2	-2.6	-8	1	0.8	x
CCN(CC)C(=O)COc1ccc(/C(C)=N/NC(=O)c2ccccc2Br)cc1	x	1.0	x	1	-1	1.9	i
COc1ccc(C2(CNC(=O)/C=C\c3ccco3)CCCC2)cc1OC	0.69	-0.7	1.7	-7	-2	2.9	x
CC(C)CN1CCN(Cc2ccc(Oc3ncccn3)cc2)CC1CCO (centres undefined)	0.73	2.4	0.7	-4	x	0.3	i
Cc1ccnc(-n2sc3ccccc3c2=O)n1	x	-0.3	x	3	29	1.3	x
O=C(NCc1ccc(C(F)(F)F)cc1)C12CN(Cc3ccccc3)CC1C(c1cccc([N+](=O)[O-])c1)=NO2 (centres undefined)	0.71	-1.7	2.4	0	-16	-4.3	i
COC(=O)c1ccc(NC(=O)C(=O)N2CCN(C(=S)Nc3ccccc3OC)CC2)cc1	0.67	-1.2	4.1	2	x	-0.3	x
Cc1ccccc1NC(=S)N1CCC(C(=O)c2ccc(F)cc2)CC1	0.7	28*	1.6	6	-7	0.5	i
Cc1ccc(-n2c(-c3ccccc3)nnc2-c2cccs2)cc1	0.69	0.5	7.4	9	-1	1.5	x
N/C(=N\c1nc2ccccc2o1)NC(=O)c1cccc(Cl)c1	0.68	4.4	-1.5	-6	-5	6.5	i
COC(=O)C1=C(C)NC(=O)NC1c1ccsc1 (centres undefined)	0.73	-1.4	0.2	1	-3	0.8	x
CCOC(=O)N1CCN(C(=O)c2ccc(N(C)S(C)(=O)=O)cc2)CC1	0.7	0.7	2.9	6	x	1.5	x
Cc1ccccc1N1C(=O)CC(Sc2nnc(-c3ccccc3)o2)C1=O (centres undefined)	0.75	0.3	0.7	16	65	-0.9	x
CC1(C)C2CCC1(CS(=O)(=O)NCc1ccc(S(N)(=O)=O)cc1)C(=O)C2 (centres undefined)	0.63	5.2	0.2	3	-5	-1.0	i
Cc1cc(OCC(=O)N[C@@H](CSCc2ccccc2)C(=O)O)c2c(C)c(C)c(=O)oc2c1	0.67	4.5	-83	-5	x	-3.7	i

Part of the list above in order of molecular weight, ascending:
SMILES	Ecoli growth	LANA-H2B inh	UCH37 DUB inh	B2AR ag	ALR H2O2 inh	HNF4A DNA FP	FGF22 binding
Cc1ccnc(-n2sc3ccccc3c2=O)n1	x	-0.3	x	3	29	1.3	x
COC(=O)C1=C(C)NC(=O)NC1c1ccsc1 (centres undefined)	0.73	-1.4	0.2	1	-3	0.8	x
C(=C\c1ccccc1)/C=N/N1CCN(Cc2ccccc2)CC1	x	-5.2	x	6	8	3.3	i
CC(C)CN1CCN(Cc2ccc(Oc3ncccn3)cc2)CC1CCO (centres undefined)	0.73	2.4	0.7	-4	x	0.3	i
CCNc1ccc(S(=O)(=O)N(C)C)cc1NCC(=O)Nc1ccccc1Br	0.71	3.6	3.3	15	-29	-1.4	i
COC(=O)c1ccc(NC(=O)C(=O)N2CCN(C(=S)Nc3ccccc3OC)CC2)cc1	0.67	-1.2	4.1	2	x	-0.3	x
O=C(NCc1ccc(C(F)(F)F)cc1)C12CN(Cc3ccccc3)CC1C(c1cccc([N+](=O)[O-])c1)=NO2 (centres undefined)	0.71	-1.7	2.4	0	-16	-4.3	i

The results go on:
SMILES	Ecoli growth	LANA-H2B inh	UCH37 DUB inh	B2AR ag	ALR H2O2 inh	HNF4A DNA FP	FGF22 binding
Cc1occc1-c1nnc(SCC(=O)N2CCCCC2C)o1 (centres undefined)	0.7	0.4	-2.1	3	3	18	i
COc1ccc(CCC(=O)NCCc2cn3c(C)csc3n2)cc1	0.77	4.2	1.6	-13	11	-0.2	i
COC(=O)c1ccccc1NC(=O)CCCn1nc([N+](=O)[O-])c(Br)c1C	0.68	-1.3	7.1	7	-3	-0.6	i
CN1C(=O)C(C)(C)c2cc(S(=O)(=O)NCC3CCC(C(=O)NCc4ccc(F)cc4)CC3)ccc21 (centres undefined)	0.74	1.3	-2.1	-7	-3	-2.2	i
CSCCC(NC(=O)c1cccc(C)c1)C(=O)OCC(=O)NC(=O)c1cccn1C (centres undefined)	0.72	-3.4	-0.4	-1	-5	5.0	x
O=C(CSc1nnc2n1CCCN2C(=S)Nc1ccc(Cl)cc1)c1ccccc1	0.71	0.3	5.8	0	5	-3.5	x
CCn1c(COc2ccc3c(c2)OCO3)nnc1SCC(=O)c1ccccc1	0.68	-12	-2.5	-7	-3	-1.9	x
COC(=O)C1CSC(C(=O)OC)N1C(=O)Nc1c(C)cccc1C (centres undefined)	0.68	2.4	2.7	5	-17	-2.9	x
Cc1ccc(C(=O)CSc2nnc(-c3ccco3)n2Cc2ccccc2)cc1	0.76	-4.1	1.7	-7	2	1.7	x
CCOc1ccc(NC(=O)CNC(=O)COc2ccccc2)cc1	0.64	-1.3	0.5	-5	x	0.1	x
Cc1ccc(OC(F)F)c(NC(=O)Nc2ccc3c(c2)OCO3)c1	0.68	-5.7	1.8	-2	-5	1.3	i
Cc1cc([N+](=O)[O-])nn1CC(=O)NCCCn1ccnc1	0.69	6.3	5.4	0	x	-2.5	i
CCc1ccc(N2CC(C(=O)Nc3cc(C)ccc3F)CC2=O)cc1 (centres undefined)	0.68	-1.4	1.5	-9	-2	5.4	x
O=C(Nc1ccc(Cl)cn1)c1ccc(-c2cc(Cl)ccc2Cl)o1	0.66	-0.1	-171	4	1	-1.9	x
O=C(O)CC(C(=O)O)c1ccc(OCCCCOc2ccc(C(CC(=O)O)C(=O)O)cc2)cc1 (centres undefined)	0.71	-8.1	4.5	-6	14	-8.1	i
Cc1csc(SCC(=O)NC2CCCCC2)n1	0.8	2.9	3.1	-6	x	0.1	x
CCCCOC(=O)c1ccc(NC(=S)NC(=O)c2ccco2)cc1	0.73	3.4	2.2	4	-12	-2.1	i
Cc1c(NC(=O)CN2C(=O)c3ccc([N+](=O)[O-])cc3C2=O)c(=O)n(-c2ccccc2)n1C	0.68	0.9	3.0	2	-62	0.1	i
